Anthrax LT inh = inhibitors of anthrax lethal toxin internalization | Cells, anthrax lethal toxin internalization, FRET ratio (460/530) | Potency, µM (series often up to 40 µM), without a hit: at the top dose activity change, negative = inhibition, usual class: inhibitors | 70,000 tested, 0.67% active; active = well fitted falling ratio curve with the 530 nm signal flat; inconclusive = other ratio curves, or a change in one channel alone; inactive = flat curves in the ratio and both channels; the % refers to the ratio; also: % is scaled to controls: 0 for no effect and ±100 for the full control effect; nearly all actives have a fitted effect of over 50% in size; tested in ME-180 cells; beta-lactamase reporter
SmPrx2 inh = inhibitors of Schistosoma mansoni peroxiredoxin 2. S. mansoni Prx2 activity coupled to TGR/GSH (TGR is thioredoxin glutathione reductase), NADPH fluorescence loss, qHTS; some inactives read as strong as hits. Potency, µM. 65,000 tested, 0.07% active; active means full or partial inhibition curve with a strong effect at the top dose; inconclusive means weaker partial or single-point curve; inactive means no accepted curve; also: series up to 57 µM; many of its hits are not listed in these tables
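Enzyme mix: 100 uM NADPH, 25 nM TGR, 700 uM GSH, 50 nM Prx2 in 100 mM phosphate pH 7.4, 10 mM EDTA, 0.01% Tween-20. 15 min RT with compound; NADPH/GSH added, H2O2 starts reaction; NADPH fluorescence read 8 min.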
* = called active by the depositor; u = inconclusive; x = not tested or not shown; & = joins results of further samples; [ ] = dose if it differs, or a comment. Potency is read from the fitted curve at half-maximal effect.

SMILES	Anthrax LT inh	SmPrx2 inh
O=C(CN1CCc2ccccc21)NC(=O)NCc1ccco1	-10%	>57
Brc1cccc(-c2nnc3n2CCC3)c1	-1%	>57
CCCOc1ccc(C(=O)c2nc3c(n2O)CCCC3)cc1	7%	>57
Cc1ccc(C(=O)C(C)OC(=O)C2CC(=O)N(C3CCCCC3)C2)cc1 (centres undefined)	-6%	>57
O=C(COc1ccc(Cl)cc1Cl)Nc1ccc2nc3n(c(=O)c2c1)CCCC3	2%	>57
CC12CN3CC(C)(CN(C1)C3c1cc3ccccc3[nH]1)C2=O (centres undefined)	-7%	>57
O=C(COC(=O)C1CCC1)NCc1ccccc1Cl	-4%	>57
COc1ccc2nc3c(c([Si](C)(C)C(C)(C)C)c2c1)Cn1c-3cccc1=O	-28%	>57
COc1ccc(CN2CC(C(=O)NCCN3CCN(c4ccccc4F)CC3)CC2=O)cc1 (centres undefined)	-10%	>57
S=C(S)O[C@@H]1C[C@@H]2C[C@H]1[C@@H]1CCC[C@H]21	u	>57&>57
COC(=O)c1ccc(NS(=O)(=O)N(C)C)cc1	6%	>57
Cc1ccc(NCc2nc3ccccc3n2C)cc1	x	>57
CCC(C(=O)NC1CCCC1)N(C(=O)Cn1nnc(-c2ccc(C)o2)n1)c1cnc2ccccc2c1 (centres undefined)	-10%	>57
CCCOC(=O)C1=C(C)NC2=C(C(=O)CCC2)C1c1cc(OC)ccc1OC (centres undefined)	5%	>57
COc1ccccc1-c1nnc(N(C)C(=O)C2CCCO2)s1 (centres undefined)	-5%	>57
COc1cccc(Cn2c(=O)c(-c3cc(F)cc(F)c3)nc3cnc(N(C)C)nc32)c1	u	>57
CCCC[C@@H]1C[C@H]1C(NC(=O)c1cccs1)c1ccccc1C(F)(F)F (some centres undefined)	2%	>57
Clc1ccc2nc(SCc3nnc(-c4ccccc4)o3)[nH]c2c1	-7%	>57
CC(C)C1Oc2ccccc2N(CC(=O)NCCCN2C(C)CCCC2C)C1=O (centres undefined)	-12%	>57
CCOC(=O)c1cc2c(=O)n3ccccc3nc2n(CC(C)C)c1=NC(=O)c1ccco1	u	>57
OC[C@@H]1O[C@H](O)[C@@H](Cl)[C@H](O)[C@@H]1O	3%	>57
O=C(Nc1cc(Cl)ccc1O)C1CCCO1 (centres undefined)	7%	>57
CCCC(=O)Nc1nc2ccc(OC)cc2s1	2%	>57
O=C(CCCCCN1C(=O)CCC1=O)Nc1ccc2c(c1)OCO2	1%	>57
Cc1cnc(CNc2cc(-c3ccoc3)ncn2)cn1	5%	>57
O=C(OCc1cc2ccccc2[nH]c1=O)c1ccccc1	-23%	x
COc1ccccc1N(CC(=O)Nc1c(C)cccc1C)S(C)(=O)=O	-10%	x
CCOC(=O)c1c(C)n(Cc2ccccc2)c2ccc(OCC(O)Cn3nc(C)nc3C)cc12 (centres undefined)	-15%	>57
O=C(CSc1nnc(CNc2ccc(Cl)cc2)o1)Nc1nc2c(s1)CCCC2	-1%	>57
Cc1cc(C)c(OCC(=O)Nc2ccccc2N2CCOCC2)c(C)c1	u	>57
CCOc1cc(C2c3c(oc4cc(C)c(Cl)cc4c3=O)C(=O)N2Cc2ccco2)ccc1O (centres undefined)	x	>57
O=C(Nc1ccc(NC(=O)c2ccco2)nc1)c1cccnc1	14%	>57
O=C(CCCC(=O)N1CCCc2ccccc21)N1CCCc2ccccc21	-8%	x
CCOc1ccc(C(CC(=O)O)NC(=O)c2ccco2)cc1OC (centres undefined)	-12%	>57
CC(=O)OC[C@@H]1O[C@H](C/C=N\O[C@@H](C)CN2CCCCc3nc(C)c(C)cc32)C=C[C@@H]1OC(C)=O	-2%[8 µM]	x
CCN(CC)c1ccc(-c2c(C#N)c(N)nc(OC)c2C#N)cc1	u	x
c1ccc(-n2ncc3c(NCc4ccccn4)ncnc32)cc1	5%	>57
Nc1nnc(SCCOc2ccc(Br)cc2)s1	u	>57
Cc1ccc(NC(=O)C2C(=O)N(CCO)C3(C)CC2c2ccccc2O3)cc1 (centres undefined)	-3%	>57
COc1ccccc1NC(=O)N(Cc1ccco1)Cc1cc2cccc(C)c2[nH]c1=O	u	>57
CC1(C)C2CC=C(CN3CCOCC3)C1C2 (centres undefined)	2%	>57
CC1(C)Cc2cccc(OCC(=O)N3CCN(S(=O)(=O)c4ccc(F)cc4)CC3)c2O1	1%	>57
CCN1CCN(C(=O)c2oc(=O)c3ccccc3c2-c2ccc(C)cc2)CC1	-9%	>57
O=C(CSc1nnc(-c2cccnc2)n1Cc1ccco1)NCc1ccc2c(c1)OCO2	7%	>57
CCc1nc(N2CCCC2C(=O)O)c2oc3ccccc3c2n1 (centres undefined)	3%	>57

Full records, looked up by structure. Screens in order: Anthrax LT inh, SmPrx2 inh
CCOc1cc(C2c3c(oc4cc(C)c(Cl)cc4c3=O)C(=O)N2Cc2ccco2)ccc1O (centres undefined) in the list: x, >57
Cc1ccc(NCc2nc3ccccc3n2C)cc1 in the list: x, >57

(continued)
SMILES	Anthrax LT inh	SmPrx2 inh
CC1CCc2cc(F)ccc2N1C(=O)CSc1nnc(-c2cccs2)n1C (centres undefined)	u	>57
NS(=O)(=O)c1ccc(NC(=O)CN2CCCCC2)cc1	-17%	>57
COC(=O)[C@H](C)NC(=O)Nc1cc(OC)ccc1OC	2%	>57
COc1ccc(N2CCN(C(=O)CSc3ncnc4c3cnn4-c3ccccc3C)CC2)cc1	-1%	>57
O=C(OCC(=O)N1CCN(C(=O)c2ccco2)CC1)c1ccccc1Cc1ccccc1	-13%	>57
Cc1cc(C)c2c(n1)nn1c(N3CCN(c4ccccc4)CC3)cc(C)nc21	-4%	>57
CC(=O)c1ccc(OC(=O)c2cccs2)cc1	12%	x
CS(=O)(=O)N1CCC2(CC1)CN(Cc1cc(C(F)(F)F)cc(C(F)(F)F)c1)C2	-7%	>57
COCCn1c(SCC(=O)NCc2cccs2)nnc1-c1ccc(OC)cc1	-18%	>57
COC(=O)C1=C(CN2CCN(C)CC2)NC(=O)NC1c1cc(C)ccc1C (centres undefined)	5%	>57
O=c1cccc2n1CC1CC2CN(c2ncnc3c2cnn3-c2ccccc2)C1 (centres undefined)	-19%	>57
COc1cccc(-c2nc(NC3CCNCC3)c3ccccc3n2)c1	-23%	>57
C=C(CC)C(=O)c1ccc(OCC(=O)O)c(Cl)c1Cl	u	>57
COc1ccc(OCCn2c(=N)n(CCO)c3ccccc32)cc1	7%	>57
O=C(CN1CCCCC1)Nc1cccc(Br)c1	-22%	>57
COc1ccc(N2CCN(c3oc(-c4ccco4)nc3C#N)CC2)cc1	-10%	>57
COc1ccc2c(CC(=O)OCC(=O)N3CCc4ccccc43)coc2c1	-14%	>57
COc1ccccc1NC(=O)C(CCS(C)(=O)=O)N1C(=O)c2ccccc2C1=O (centres undefined)	3%	>57
CSCC[C@@H]1NC(=O)C/C=C\[C@@H](C)COC(=O)[C@@H](C)COC1=O	-15%[0.32 µM]	x
Cc1nn(-c2ccc(F)cc2)c2sc(C(=O)O)cc12	12%	>57
COc1ccccc1N1C(=O)CC(Nc2ccc(N3CCOCC3)cc2)C1=O (centres undefined)	-2%	>57
CCn1c(COc2ccccc2C)nnc1SCC(=O)NC1CCCC1	-2%	>57
CCOC(=O)C1=C(C)NC(C)=C(C(=O)OC)[C@H]1c1cccc([N+](=O)[O-])c1	u	>57&>57
Cc1ccc(-n2c(N)c(C(=O)N3CCOCC3)sc2=S)c(C)c1	14%	>57
CCOC(=O)c1ccc(NC(=O)CSc2nnc(CNC(=O)c3c(F)cccc3Cl)o2)cc1	9%	>57
CC(C)NC(C)C	u	x
N#CCCn1c(SCC(=O)NCC2CCCO2)nc2ccccc21 (centres undefined)	7%	>57
Cc1nc2ccccn2c1C(=O)c1ccccc1	-7%	>57
CCOC(=O)c1ccc(-c2n[nH]c(=O)c3ccccc23)cc1	-6%	>57
COc1ccc(C(F)(F)F)cc1NC(=O)c1nc2nc(C)cc(C(F)F)n2n1	10%	>57
COC(=O)CSc1ccc2nnc(-c3ccc(F)cc3)n2n1	-1%	>57
Cc1c(C(=O)N2CCN(c3ccccn3)CC2)oc2ccccc12	x	>57
NC(=O)C1CCN(C(=O)CN2CCN(c3cccc(C(F)(F)F)c3)CC2)CC1	x	>57
CCc1cc2c3c(c(=O)oc2cc1OC)CCCC3	1%	>57
CCOC(=O)c1c(C)oc2c1c(C(c1cccnc1)N1CCN(C)CC1)c(O)c1ccccc12 (centres undefined)	-11%	>57
CCCCOC(=O)Nc1nc2ccc(OC)cc2s1	-12%	x
O=C(NCc1ccco1)c1cc(-c2cccnc2)nc2ccccc12	8%	>57
C[C@@]12Cc3cnc(-c4ccccc4)nc3C[C@@H]1CC[C@@H]1[C@H]3CC[C@@](C)(O)[C@]3(C)CC[C@@H]12	-26%[8 µM]	>57
Cc1nc2nc(COc3ccccc3)[nH]n2c(=O)c1C	11%	>57
CCOCCCNC(=O)C1CCN(C(=O)N(C)C)CC1	-2%	>57
COC(=O)c1nn(-c2c(C)n(C)n(-c3ccccc3)c2=O)cc1O	-2%	>57
COc1ccc(N2CCN(C(=O)c3ccc(NS(=O)(=O)c4cccc(F)c4)cc3)CC2)cc1	5%	>57
O=C(CCCn1c(=O)[nH]c2ccsc2c1=O)N1CCN(Cc2ccc3c(c2)OCO3)CC1	4%	>57
O=C(CCCOc1ccc(Cl)cc1)N1CCOCC1	u	>57
Cc1ccc(NC(=O)C2CCCN2S(=O)(=O)c2cccc3cccnc23)cc1F (centres undefined)	-28%	>57
CCNS(=O)(=O)c1ccc(NC(=O)Cc2ccc(F)cc2)cc1	-22%	>57
O=C(CSc1nnc(-c2cccs2)o1)OCc1ccccc1	-6%	>57
COc1cc(C(=O)NCC(=O)OCC(=O)c2ccc[nH]2)cc(OC)c1OC	-3%	>57
CCOC(=O)c1sc2nc(N3CCOCC3)c3c(c2c1N)CCN(C)C3	-9%	>57
Cc1sc(NC(=O)CSc2nnc(C)c(=O)[nH]2)c(C#N)c1C	-1%	u
Cc1nc2c(C(=O)N3CCN(c4ccccn4)CC3)cnn2c(C)c1Cc1cccc(Cl)c1	u	>57
Nc1nc2c(ncn2[C@@H]2C=C[C@@H](CO)C2)c(=O)[nH]1	5%[8 µM]	>57
COC(=O)[C@H](C)NC(=O)Nc1ccc(OC)c(OC)c1	-3%	>57
CCOC(=O)N1CCN(S(=O)(=O)c2ccc(C(=O)Nc3nc4ccccc4s3)cc2)CC1	-2%	>57
Cn1c(=O)cnc2cnc(OCc3ccccc3)nc21	-6%	>57
COc1ccc(CCn2c(N)cc(=O)[nH]c2=S)cc1OC	9%	>57
N#Cc1ccc(CSc2nnc(-c3ccncc3)n2CCc2ccccc2)cc1	3%	>57
Cc1cc(NC(=O)NC(=O)c2cccc(OC(F)(F)C(F)F)c2)n[nH]1	-7%	>57
Cc1ccc(S(=O)(=O)N2CCN(C(=O)CN3CCN(C)CC3)C2)cc1	5%	>57
CCOC(=O)c1cccc(NC(=O)C2CCCO2)c1 (centres undefined)	-2%	>57

Other results:
SMILES	Anthrax LT inh	SmPrx2 inh
COc1ccc(S(=O)(=O)N2Cc3ccccc3CC2C(=O)O)cc1OC (centres undefined)	-4%	>57
CCc1nnc2sc(-c3cc(-c4ccccc4)nc4ccccc34)nn12	2%	>57
O=C(Cn1ncc2ccccc21)N1CCC2(CC1)OCCO2	5%	>57
CC1CC(C)CN(C(=O)COc2ccc(-c3nnco3)cc2)C1 (centres undefined)	8%	>57
Cc1ccc(C2(c3ccc(C)c(O)c3C)CCN(C)CC2)c(C)c1O	-3%[8 µM]	>57
Cc1cccc(-c2nc(CS(=O)CC(=O)N3CCc4ccccc4C3)c(C)o2)c1 (centres undefined)	-1%	>57
Cc1ccc(-c2nnn(CC(=O)N(c3ccccc3F)C(C(=O)NC3CCCC3)c3ccco3)n2)o1 (centres undefined)	4%	>57
COc1ccc(C2=NOC(C(=O)N3CCOCC3)C2)cc1OC (centres undefined)	4%	>57
Cc1nc2ccccn2c1/C(O)=C1\C(=O)C(=O)N(CCCN(C)C)C1c1ccc(F)cc1 (centres undefined)	1%	>57
CCOC(=O)c1c(N)sc(C(=O)Nc2ccc3c(c2)OCO3)c1C	u	>57

Of the compounds above, 12 have an NH in an aromatic ring:
SMILES	Anthrax LT inh	SmPrx2 inh
CC12CN3CC(C)(CN(C1)C3c1cc3ccccc3[nH]1)C2=O (centres undefined)	-7%	>57
Clc1ccc2nc(SCc3nnc(-c4ccccc4)o3)[nH]c2c1	-7%	>57
O=C(OCc1cc2ccccc2[nH]c1=O)c1ccccc1	-23%	x
COc1ccccc1NC(=O)N(Cc1ccco1)Cc1cc2cccc(C)c2[nH]c1=O	u	>57
CCOC(=O)c1ccc(-c2n[nH]c(=O)c3ccccc23)cc1	-6%	>57
Cc1nc2nc(COc3ccccc3)[nH]n2c(=O)c1C	11%	>57
O=C(CCCn1c(=O)[nH]c2ccsc2c1=O)N1CCN(Cc2ccc3c(c2)OCO3)CC1	4%	>57
COc1cc(C(=O)NCC(=O)OCC(=O)c2ccc[nH]2)cc(OC)c1OC	-3%	>57
Cc1sc(NC(=O)CSc2nnc(C)c(=O)[nH]2)c(C#N)c1C	-1%	u
Nc1nc2c(ncn2[C@@H]2C=C[C@@H](CO)C2)c(=O)[nH]1	5%[8 µM]	>57
COc1ccc(CCn2c(N)cc(=O)[nH]c2=S)cc1OC	9%	>57
Cc1cc(NC(=O)NC(=O)c2cccc(OC(F)(F)C(F)F)c2)n[nH]1	-7%	>57

Assay outcomes (PubChem)

Some of the compounds tested; the hit share may differ from the screen's.
